# Source: PubChem
# Arbovirus anti: antivirals against arbovirus infection, primary screen, cell-based, full library, 10K replicate subset; arbovirus infection cell-based antiviral screen; inhibition, % at 10 µM; 0.37% of 200,000 active; AID 1251, 2008;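 active means inhibition from about 30%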;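 further: bluetongue infection of BSR cells; cell survival read as ATP light after 72 h; 0% = infected wells without compound and 100% = uninfected wells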
# Mtb bLac sens: beta-lactam sensitization of Mtb H37Rv, H37Rv; M. tuberculosis H37Rv growth with meropenem, percent inhibition; hits of this screen are not shown here; inhibition, % at 25 µM; 0.27% of 330,000 active;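 active means about 74% or more and at least 40 points above the plate without the antibiotic, then above 30% in a dose series; inconclusive means first-round hits that could not be retested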;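 further: growth measured after seven days incubation then overnight dye step; 0% = bacteria only wells and 100% = bacteria with antibiotic; twin plates without the antibiotic show which effects depend on it; some results filed as inactive read as strong as hits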
# RecA splice inh: Mtb RecA intein splicing inhibitors, primary screen, biochemical, fluorescence, HTS; Protein RecA (Mycobacterium tuberculosis (strain ATCC 25618 / H37Rv)), P9WHJ3; cell-free RecA intein splicing; inhibition, %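 (about 9 µM by stock and volumes)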; 0.75% of 290,000 active; in the data active means inhibition above about 30%; inconclusive means no clear call, values can overlap the other calls;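 further: 0% = vehicle wells and 100% = reference inhibitor control wells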
# Target sequence (P9WHJ3 whole entry, looked up, canonical isoform): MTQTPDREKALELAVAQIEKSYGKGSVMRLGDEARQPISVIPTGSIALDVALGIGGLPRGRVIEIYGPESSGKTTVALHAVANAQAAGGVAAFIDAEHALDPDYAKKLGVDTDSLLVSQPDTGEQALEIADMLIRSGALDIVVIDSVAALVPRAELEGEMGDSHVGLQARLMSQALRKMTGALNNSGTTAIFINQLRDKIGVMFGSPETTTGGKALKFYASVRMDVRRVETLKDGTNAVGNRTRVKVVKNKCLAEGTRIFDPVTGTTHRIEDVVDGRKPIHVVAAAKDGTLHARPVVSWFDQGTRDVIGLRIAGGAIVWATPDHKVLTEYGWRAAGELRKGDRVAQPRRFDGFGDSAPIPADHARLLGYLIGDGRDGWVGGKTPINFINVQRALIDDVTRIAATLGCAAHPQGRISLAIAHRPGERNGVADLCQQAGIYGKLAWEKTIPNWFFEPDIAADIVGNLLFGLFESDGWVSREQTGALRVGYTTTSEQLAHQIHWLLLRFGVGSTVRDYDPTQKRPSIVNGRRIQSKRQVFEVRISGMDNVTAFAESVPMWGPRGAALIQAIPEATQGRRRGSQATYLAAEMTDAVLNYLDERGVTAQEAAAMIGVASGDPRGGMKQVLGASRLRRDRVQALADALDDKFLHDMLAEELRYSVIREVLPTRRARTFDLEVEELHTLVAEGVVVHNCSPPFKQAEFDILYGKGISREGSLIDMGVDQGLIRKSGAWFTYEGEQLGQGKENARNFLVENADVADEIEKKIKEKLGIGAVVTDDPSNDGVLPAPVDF
# Mtb H37Rv: M. tuberculosis H37Rv growth inhibitors, H37Rv strain (AID 1626). M. tuberculosis H37Rv growth inhibition; higher % means a stronger effect. one-dose inhibition, % at 10 µM; IC50 in µM for titrated hits. 0.95% of 220,000 active;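 active means confirmed in a dose series; inconclusive means inhibition above 80% but not taken into the dose series; inactive means below 80% or under 30% at every dose of the series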;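 further: bacteria incubated seven days before Alamar blue readout; 0% = bacteria only wells and 100% = bacteria with antibiotic wells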
# YopH inh: YopH tyrosine phosphatase inhibitors, primary screen, biochemical, fluorescence Ex485/Em525; inhibition, %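 (about 10 µM by stock and volumes)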; 0.16% of 140,000 active; YopH tyrosine phosphatase [Yersinia enterocolitica];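 active means inhibition of 50% or more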;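 further: controls were vehicle for no effect and minimum signal wells for full effect; inactives centre near -20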
# Arbovirus anti repeat: recorded beside Arbovirus anti, whose call it bears; inhibition, %; measured here: 10K subset replicate screen; many hits read low in the repeat;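 first of two repeat runs on a subset; 0% = infected and 100% = uninfected wells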
# Active calls of the source: *; ? = inconclusive; / = not tested or not shown. This is a subset; rates above refer to the full screens.
SMILES,Arbovirus anti,Mtb bLac sens,RecA splice inh,Mtb H37Rv,YopH inh,others
Cc1cccc(C)c1N=Cc1c(O)n(-c2nccs2)c(=O)c2ccccc12,-7,37,7.5,3%,-14,
CC(C)n1nc(C(=O)Oc2cc(Cl)ccc2Cl)c2ccccc2c1=O,-11,6,-3.2,6%,-19,
O=C(CSc1nnc2c(Cl)cc(C(F)(F)F)cn12)N(Cc1ccccc1)Cc1ccccc1,-1,-16,7.7,8%,-24,
Cc1nnc(SCC(=O)c2c(N)n(C)c(=O)n(C)c2=O)[nH]c1=O,/,5,3.8,-13%,/,
CCn1c(SCC(=O)NC2CCCCC2C)nnc1-c1ccc(OC)cc1 (centres undefined),-3,-6,-2.5,-10%,-54,
Oc1[nH]c2ccccc2c1N=NC(=S)NCC1CCCO1 (centres undefined),-19,46,10,77%,-16,
CCc1nnc(NC(=O)Cc2c[nH]c3ccccc23)s1,13,0,-8.4,5%,/,
Cc1ccc(S(=O)(=O)N2CCC(C(=O)OCC(=O)N3CCC(C)CC3)CC2)cc1C,/,8,-0.6,/,/,
O=C1CN(C(=O)COC(=O)C23CC4CC(CC(O)(C4)C2)C3)c2ccccc2N1,16,-2,-7.1,-7%,14,
Cc1c(C)c2cc(Cl)c(O)c(CN3CCCCC3)c2oc1=O,10,2,-30,-5%,-9,
Cc1ccc(C2(O)CCN3CCCCC32)cc1 (centres undefined),6,-3,0.2,-18%,-2,
O=C(CN(Cc1ccc(Cl)c(Cl)c1)S(=O)(=O)c1ccccc1)N/N=C\c1ccc2c(c1)OCO2,-24,-11,1.8,3%,-2,
CNC(=O)c1ccc(=O)n(Cc2cccc(C(F)(F)F)c2)c1,1,-9,-1.7,-3%,/,
CC(C#N)On1c(SC(C)C#N)nc2ccccc2c1=O (centres undefined),2,4,/,3%,-54,
C[N+]1(C)CCOC(O)(c2ccc(-c3ccc(C4(O)C[N+](C)(C)CCO4)cc3)cc2)C1 (centres undefined),8,5,1.6,-1%,-52,
COc1cccc(N(CC(=O)NCc2ccco2)C(=O)CCC(=O)Nc2nccs2)c1,/,2,0.3,-7%,/,
O=C(Nc1cccc2ncccc12)c1ccco1,/,3,-0.6,/,/,
CN(C)C(=O)COn1c(SCC(=O)N(C)C)nc2ccccc2c1=O,4,5,-1.4,0%,-16,
CC(C)(C)c1cc(NC(=O)c2cccc(S(=O)(=O)N3CCOCC3)c2)no1,11,0,-2.0,-2%,-27,
Cc1cc(NS(=O)(=O)c2ccc(NC(=O)COc3c(C)cc(Br)cc3C)cc2)no1,/,3,-5.1,/,/,
Cc1ccc(C(C[N+](=O)[O-])c2c(C)[nH]n(-c3ccccc3)c2=O)cc1 (centres undefined),-3,95,93*,27%,83*,
Cc1ccc(S(=O)(=O)NCC(=O)N(CC(=O)NC(C)(C)C)Cc2ccc3c(c2)OCO3)cc1,/,6,-4.9,/,/,
CCOc1ccccc1NC(=O)CN1CCC(NC(=O)c2ccccc2C)CC1,/,6,-3.5,-4%,/,
Cc1nc2ncnn2c(C)c1CCC(=O)O,12,8,0.7,-6%,-22,
CC(=O)N(c1ccc(Cl)cc1)c1nc(C)cc(C)c1C#N,-3,-7,-1.8,4%,/,

# Next section; the last seven above are carried over.
SMILES,Arbovirus anti,Mtb bLac sens,RecA splice inh,Mtb H37Rv,YopH inh,others
CC(C)(C)c1cc(NC(=O)c2cccc(S(=O)(=O)N3CCOCC3)c2)no1,11,0,-2.0,-2%,-27,
Cc1cc(NS(=O)(=O)c2ccc(NC(=O)COc3c(C)cc(Br)cc3C)cc2)no1,/,3,-5.1,/,/,
Cc1ccc(C(C[N+](=O)[O-])c2c(C)[nH]n(-c3ccccc3)c2=O)cc1 (centres undefined),-3,95,93*,27%,83*,
Cc1ccc(S(=O)(=O)NCC(=O)N(CC(=O)NC(C)(C)C)Cc2ccc3c(c2)OCO3)cc1,/,6,-4.9,/,/,
CCOc1ccccc1NC(=O)CN1CCC(NC(=O)c2ccccc2C)CC1,/,6,-3.5,-4%,/,
Cc1nc2ncnn2c(C)c1CCC(=O)O,12,8,0.7,-6%,-22,
CC(=O)N(c1ccc(Cl)cc1)c1nc(C)cc(C)c1C#N,-3,-7,-1.8,4%,/,
O=C(NCCCn1ccnc1)C(Cc1ccc([N+](=O)[O-])cc1)N1C(=O)c2ccccc2C1=O (centres undefined),5,-8,1.2,-11%,-15,
COCc1cc(N2CCCC2)nc(-c2ccccc2)n1,10,-1,/,2%,/,
CC(C)Sc1n[nH]c2nc3c(c(=O)n12)C1(CCCC1)Cc1ccccc1-3,9,/,/,-1%,-9,
Cc1csc(NC(=O)c2ccc(C)s2)n1,/,-6,-0.3,/,/,
C=CCNC(=O)COc1ccc(Oc2ccccc2)cc1,-8,5,0.8,14%,/,
CCOC(=O)C1CCCN(C/C=C/c2ccccc2)C1 (centres undefined),/,-4,1.3,/,/,
O=C(Nc1nc2ccccc2s1)c1ccc(F)cc1,11,48,-0.1,2%,/,
CCCCOC(=O)Cn1c(=O)oc2ccc(C)cc21,-6,-2,0.3,-3%,-10,Arbovirus anti repeat=0
Cc1ccc(C(=O)NCC(=O)OCC(=O)c2ccc(C)c([N+](=O)[O-])c2)cc1,-5,-5,3.4,-11%,-26,
N/C(=N\N=C\c1cccs1)SC1CC(=O)N(c2ccc(Br)cc2)C1=O (centres undefined),-22,9,-2.3,0%,/,
CN(C)c1ccc(NC(=O)Cn2ncn3c(cc4ccccc43)c2=O)cc1,12,-3,/,-1%,-25,
CCCc1nc2ccc(NC(C)=O)cc2c(=O)n1Cc1ccc(Cl)cc1,17,5,-0.2,-5%,/,
COc1ccc(N=Cc2[nH]c3ccccc3c2O)cc1,-5,39,-3.8,-3%,/,
CCC(C)(C)n1nnnc1C(c1cccs1)N1CCCCC1 (centres undefined),-5,4,-0.6,0%,/,
Cc1cccc(NC(=O)CSc2nc3ccccc3nc2N2CCCC2)c1C,/,10,1.8,/,/,
Cc1cc(C)nc(NNC2=CC(=[N+]3CCCCC3)CC(C)(C)C2)n1,4,10,2.2,-6%,/,
CS(=O)(=O)c1ccc(N)c(SSc2cc(S(C)(=O)=O)ccc2N)c1,/,37,18,/,/,
CC(=O)c1ccc(NC(=O)c2ccc(CSc3ccccc3)o2)cc1,6,3,9.1,-6%,-8,
CC1CCN(C(C(=O)Nc2ccc3c(c2)OCO3)c2ccccc2)CC1 (centres undefined),-10,-1,1.0,-4%,-44,Arbovirus anti repeat=-6
CCn1c(CSCc2ccc(C)cc2)nnc1SCC(=O)NCc1ccccc1,4,-5,-0.7,-6%,4,
Cc1cccc(NC(=S)NCc2ccc(F)cc2)c1,6,-1,2.4,6%,-8,
COc1cccc(CN2CC(C(=O)NCc3cnn(C)c3)CCC2=O)c1 (centres undefined),/,-19,-2.1,/,/,
Cc1oc2ccc(NS(=O)(=O)c3ccc(C(C)(C)C)cc3)cc2c1C(=O)Nc1ccccc1,8,3,-1.6,0%,-8,
Cc1cc(=O)n(CC(=O)NC2CC2)c2c1c(C)nn2-c1ccccc1,/,-2,-5.2,/,/,
CCCN(CC(=O)Nc1ccccc1C)C(=O)c1ccc(N2CCCC2)c([N+](=O)[O-])c1,/,-2,-0.6,/,/,

# 3 entries from above, ordered by SMILES length, lowest first:
SMILES,Arbovirus anti,Mtb bLac sens,RecA splice inh,Mtb H37Rv,YopH inh,others
CCOC(=O)C1CCCN(C/C=C/c2ccccc2)C1 (centres undefined),/,-4,1.3,/,/,
CCOc1ccccc1NC(=O)CN1CCC(NC(=O)c2ccccc2C)CC1,/,6,-3.5,-4%,/,
C[N+]1(C)CCOC(O)(c2ccc(-c3ccc(C4(O)C[N+](C)(C)CCO4)cc3)cc2)C1 (centres undefined),8,5,1.6,-1%,-52,

# Going on with the list:
SMILES,Arbovirus anti,Mtb bLac sens,RecA splice inh,Mtb H37Rv,YopH inh,others
COc1ccccc1/C=C(/NC(=O)c1ccccc1)C(=O)NCCCn1ccnc1,/,7,0.4,/,/,
CCOC(=O)C(CCCCOc1cccc(CC)c1)C(=O)OCC,-2,12,9.9,2%,-19,
Cc1cc(C(=O)c2ccccc2)c(NC(=O)CCl)s1,4,99,58*,/,-33,
O=C(CO/N=C/c1c(Cl)cccc1Cl)NNC(=O)c1cccc(Cl)c1,/,-13,-2.7,-2%,/,
COc1cccc(C2(O)CCN(C(=O)C3CC3)CC2)c1,8,-4,-0.2,3%,-16,
CN(C(=O)c1ccc2c(Cl)c3c(nc2c1)CCC3)c1ccccc1,-7,-1,0.1,4%,-20,
Cc1cc(NC(=O)c2ccccc2)ccc1NC(=O)c1ccccc1Cl,/,-5,-1.6,/,/,
COc1ccc(C(=O)C2CCCN(Cc3cccn3-c3ccccn3)C2)c(OC)c1 (centres undefined),-23,0,0.8,-1%,/,
COc1ccc(C(C(=O)NC2CCCC2)N(CCCO)C(=O)c2snc(C(N)=O)c2N)cc1 (centres undefined),/,-10,-2.9,/,/,
O=S(c1ccsc1)c1ccsc1,2,-9,-0.1,4%,10,
O=C(CSc1ccc(Cl)cc1)NNC(=O)c1cccnc1,8,3,1.4,0%,/,
Nc1c(C(=O)Nc2ccccc2)nnn1-c1ccc2c(c1)OCCO2,/,2,2.4,/,/,
O=C(O)c1cc(-c2ccco2)nn1-c1cccc(Cl)c1,2,7,7.2,-3%,/,
C=CCn1c(CCCNC(=O)c2ccccc2OC)nc2ccccc21,2,-8,0.7,-3%,/,
CCOC(=O)c1ccc2nc(NC(=O)C(C)C)sc2c1,-4,-3,0.9,8%,-50,Arbovirus anti repeat=-2
COc1ccccc1/C=N\Nc1ccccc1[N+](=O)[O-],/,3,1.4,0%,/,
Cc1ccc(NC(=O)C(=O)NNC(=O)c2cccs2)cc1,13,80,2.9,?,/,
CC(C)c1ccccc1NC(=O)C1CC(=O)N(C2CCCC2)C1 (centres undefined),/,-13,0.9,/,/,
O=C(C1CCC(CNc2c(N3CCCCC3)c(=O)c2=O)CC1)N1CCN(C2CCCCC2)CC1 (centres undefined),/,-6,-0.4,-2%,/,
COc1ccc2c(c1)cc1n2CCN=C1NCCO,-3,-2,-1.2,-8%,-18,
CC(C)c1nc(SCC(=O)N2CCCC2)c2c(=O)n(C)c(=O)n(C)c2n1,/,-2,0.8,/,/,
COc1ccc(/C=N/N2CCOCC2)cc1Cn1nc(C)c([N+](=O)[O-])c1C,/,-1,-4.2,-11%,/,
C1CCCCCC2(CCCCC1)OCC(CN1CCOCC1)O2 (centres undefined),17,1,-5.2,0%,3,
CCCCCc1nc2c(C#N)c(-c3ccc(Cl)cc3)ccn2n1,-4,0,1.2,12%,-36,
c1ccc(C(NCCNC(c2ccccc2)c2ccccc2)c2ccccc2)cc1,/,1,-0.7,/,/,

# (cont.)
SMILES,Arbovirus anti,Mtb bLac sens,RecA splice inh,Mtb H37Rv,YopH inh,others
O=C(COC(=O)COc1cccc(C(F)(F)F)c1)NC1CCS(=O)(=O)C1 (centres undefined),/,0,-0.7,/,/,
COc1ccc(CNC(=O)/C=C/C(=O)O)cc1OC,-1,7,5.9,-5%,-36,
Cc1ccc(SCCC(=O)Nc2ccccc2C(=O)NC(C)C)cc1,1,13,-1.2,-10%,-19,
CC(C)C1COC(c2cccn2Cc2ccccc2Cl)=N1 (centres undefined),9,2,1.5,1%,/,
O=C(CSc1nnnn1-c1ccc(O)cc1)Nc1cccc(S(=O)(=O)N2CCCC2)c1,-3,-17,1.9,-1%,-5,
CCOc1ccc(/C=N/NC(=S)Nc2c(C)cccc2C)cc1,12,2,0.2,6%,-35,
COc1ccc(OC)c(NC(=O)C2CCCN(S(=O)(=O)c3c(C)noc3C)C2)c1 (centres undefined),8,-6,2.8,7%,-42,
COc1cc2c(cc1O)CC[n+]1cc3c(OC)c(OC)ccc3cc1-2,2,2,-0.3,9%,-20,
O=C(CNS(=O)(=O)c1ccc([N+](=O)[O-])cc1)N/N=C/c1ccc(O)cc1O,/,2,-4.3,/,/,
CCCNC(=O)c1ccc(N2CCC3(CC2)CC(c2ccccc2)=NO3)c(NC(=O)c2ccc(Br)cc2)c1,/,0,4.1,/,/,
CCc1ccc(NC(=O)c2cnn3ccccc23)cc1,-14,4,0.5,2%,-33,
COc1ccc(C(=O)CN2C(=O)NC3(CCCCCC3)C2=O)cc1,/,2,-2.4,/,/,
Cc1ccc(-c2nc(C)sc2CC(=O)OCC(=O)Nc2c(F)cccc2F)cc1,-3,-3,1.2,3%,-24,
